Cruzain noTriton: blocks cruzain activity in detergent-free assay; P25779; purified cruzain, Z-FR-AMC fluorescence, no detergent; Potency, µM, without a hit: max response, negative = inhibition, usual class: inhibitors; hit rate 2.3% among 200,000; AID 1476;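 also: plate controls were enzyme without inhibitor for no effect and buffer without enzyme for full effect; nearly all actives have a fitted effect of over 40% in size; top concentration of the series not given in the record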
Target sequence (P25779 123-467 limits assumed): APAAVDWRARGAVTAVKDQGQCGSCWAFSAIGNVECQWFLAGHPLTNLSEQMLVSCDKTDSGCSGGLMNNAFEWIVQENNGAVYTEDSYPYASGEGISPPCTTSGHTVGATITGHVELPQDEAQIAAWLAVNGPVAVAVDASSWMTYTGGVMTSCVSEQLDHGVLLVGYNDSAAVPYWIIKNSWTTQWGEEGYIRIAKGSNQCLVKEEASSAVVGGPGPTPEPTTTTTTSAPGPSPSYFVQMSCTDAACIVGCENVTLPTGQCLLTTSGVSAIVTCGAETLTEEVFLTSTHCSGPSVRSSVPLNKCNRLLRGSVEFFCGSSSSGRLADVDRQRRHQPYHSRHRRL
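Detergent-free condition (0.00005% Triton X-100) in acetate buffer pH 5.5 with DTT. 1.5 nM enzyme and compound were pre-mixed 15 min, then 2 uM Z-FR-AMC substrate added; reaction progress from fluorescence change between first and third reads (60 s).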
SARS PLP yeast: SARS-CoV PLP inhibition in yeast. Potency, µM (top dose mostly 32.9 µM), inactives show at the highest dose activity, positive = growth rescue. hit rate 0.19% among 330,000. S. cerevisiae expressing SARS-CoV PLpro, growth rescue; control for the full effect not named in the record; active means well fitted rising curve with a large enough effect; inconclusive means small, poorly fitted or top-dose-only effect; inactive means no such curve, though single readings can be large or run the other way; also: 0% is about no effect; nearly all actives have a fitted effect of over 55% in size; growth read by luminescence after 48 h
Cruzain inh Det: inhibitors of Trypanosoma cruzi cruzain with detergent. P25779. purified cruzain, Z-FR-AMC fluorescence, 0.01% Triton. Potency, µM, for inactives: max response, negative = inhibition, most hits filed as inhibitors. hit rate 0.43% among 200,000. AID 1478;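 also: plate controls were neutral wells for no effect and buffer without enzyme for full effect; nearly all actives have a fitted effect of over 40% in size; top concentration of the series not given in the record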
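Cysteine protease activity tested under reducing, mildly acidic conditions (100 mM sodium acetate pH 5.5, 5 mM DTT) plus 0.01% Triton X-100. Cruzain 1.5 nM; substrate Z-FR-AMC 2 uM; 15 min compound preincubation at room temperature.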
RE007 growth inh: less growth of the S. pombe RE007 Vpr strain. Potency, µM (doses to about 92.2 µM), inactives show at the top dose activity change, negative = less growth. S. pombe RE007 Vpr strain, BacTiter-Glo ATP luminescence, 24 h; control for the full effect not named in the record. hit rate 0.21% among 360,000. AID 651644; active = well fitted falling curve with a large enough effect; inconclusive = small, poorly fitted or top-dose-only effect; inactive = no such curve, though single readings can be large or run the other way;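 also: % is scaled to controls: 0 for no effect and ±100 for the full control effect; nearly all actives have a fitted effect of over 50% in size; the assay follows cell death caused by Vpr and the record does not say whether a fall means rescue or toxicity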
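Fission yeast strain RE007, carrying one chromosomally integrated HIV-1 vpr copy, was seeded at OD 0.01 in PMG+AL medium with 23 nL pinned compound. After 24 h at 30 °C and 99% humidity, viability was read by BacTiter-Glo luminescence.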
NS1 function inh: inhibitors of influenza NS1 protein function; S. cerevisiae slowed by influenza A NS1, growth recovery by OD600; hit rate 0.4% among 270,000; AID 2326; Potency, µM (series often up to 46.1 µM), without a hit: top-dose activity, positive = more growth; active means well fitted rising curve with a large enough effect; inconclusive means small, poorly fitted or top-dose-only effect; inactive means no such curve, though single readings can be large or run the other way; also: nearly all actives have a fitted effect of over 50% in size
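A cell-based growth assay was used: compounds that relieve NS1-induced slow growth of budding yeast raise OD600. Assay medium was yeast nitrogen base with ammonium sulphate and -URA supplement, pH 6.0, with 2% galactose.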
Marburg entry inh: Marburg virus entry inhibition; Marburg virus pseudotyped entry inhibition, cell reporter; control for the full effect not named in the record; about a third of the inactives were read at about 46 µM; Potency, µM (doses to about 37.8 µM), for inactives: at the highest dose activity change, negative = inhibition, most hits filed as inhibitors; hit rate 1.8% among 300,000; AID 540276; active = well fitted inhibition curve with a large enough effect; inconclusive = small, poorly fitted or top-dose-only effect, or effect the other way; inactive = flat fitted curve, though single readings scatter; tested in HEK293 cells; about a fifth of its hits are not listed in these tables; also: % is scaled to controls: 0 for no effect and ±100 for the full control effect; luciferase read-out
2A StopGo: lowers the luciferase signal of an FMDV 2A StopGo reporter | Potency, µM (series often up to 57.9 µM), for inactives: at the top dose signal change, negative = less light | AID 1159524 | human cells with a luciferase reporter of 2A StopGo recoding; control for the full effect not named in the record | hit rate 1.2% among 410,000; active = well fitted falling curve with a large enough effect; inconclusive = small, poorly fitted or top-dose-only effect; inactive = no such curve, though single readings can be large or run the other way; tested in HEK293T cells; also: % is scaled to controls: 0 for no effect and ±100 for the full control effect; nearly all actives have a fitted effect of over 45% in size; luciferase light after 4 h
LASV entry inh: Lassa virus entry inhibition | Lassa virus pseudotype entry inhibition, cell reporter; control for the full effect not named in the record | Potency, µM (highest dose often 37.9 µM), for inactives: at the highest dose activity change, negative = inhibition, actives largely listed as inhibitors | hit rate 1.2% among 300,000 | AID 540256; active means well fitted inhibition curve with a large enough effect; inconclusive means small, poorly fitted or top-dose-only effect, or effect the other way; inactive means flat fitted curve, though single readings scatter; tested in HEK293 cells; also: % is scaled to controls: 0 for no effect and ±100 for the full control effect; nearly all actives have a fitted effect of over 50% in size; luciferase read-out
The depositor's hits bear a star; ? = inconclusive; . = no result given; & = joins results of further samples; [ ] = another dose, or the depositor's remark. Unless noted, calls follow the shape of the dose curve; as a rule, active = well fitted curve in the direction sought with a large enough effect; inconclusive = small, poorly fitted or top-dose-only effect, or another doubt; inactive = no such curve, though single readings can be large; an effect the other way counts as inactive or inconclusive. Potency is read from the fitted curve at half-maximal effect.

smiles,RE007 growth inh,Cruzain inh Det,2A StopGo,SARS PLP yeast,Cruzain noTriton,LASV entry inh,Marburg entry inh,NS1 function inh
CSc1ncccc1C(=O)OCC(=O)N(CC(C)C)C1CCS(=O)(=O)C1 (configuration not stated),9.7%,2.2%,7.0%,-3.9%,-2.9%,25.4%,14.5%,2.3%
Cn1c2ccccc2c2cnn(CC(=O)O)c(=O)c21,9.6%,0.9%,8.4%,2.3%,2.7%,-5.3%,23.3%,7.6%
CSc1cccc(NC(=S)N2CCC(N(C)C3CCCCC3C)CC2)c1 (configuration not stated),-5.6%,.,-19.9%,1.4%,.,-14.0%,?,.
Cc1ccc(-c2nc(C(=O)Nc3cccc(C#N)c3)c3n2CCCCC3)cc1,.,-0.1%,-28.0%,.,-2.0%,1.4%[46.1 µM],.,.
O=C(Nc1ccccc1)c1cnc[nH]1,-1.9%,1.9%,27.9%,7.0%,-8.5%,-24.1%,4.6%,1.8%
CN(Cc1ccc(F)cc1)C(=O)c1ccc(NS(=O)(=O)c2ccccc2)cc1,-11.0%,.,-3.7%,-1.7%,.,-24.6%,-0.1%,.
CC(=O)c1cccc(NC(=O)N2CCC(NC(=O)c3ccco3)CC2)c1,5.3%,.,-14.5%,2.5%,.,21.0%[46.1 µM],?,-1.1%
Cc1n[nH]c(=O)c2ccccc12,-7.2%,.,1.8%,-0.8%,.,0.5%[46.1 µM],2.4%[46.1 µM],-1.9%
O=C(N/N=C/c1ccc([N+](=O)[O-])o1)c1ccccc1NS(=O)(=O)c1cccs1,?,.,?,-0.7%,.,.,.,-4.1%
Cc1ccc(/C=C2/SC(=S)N(CCC(=O)N3CCN(C)CC3)C2=O)cc1,-0.6%,.,16.3%,0.1%,.,2.8%,?,-1.2%
CC(NC(=O)CSc1nc2ccccc2c(=O)n1CCCO)c1ccccc1 (configuration not stated),0.1%,0.0%,6.4%,1.8%,-2.1%,7.7%,-9.0%,-18.9%
CC(C)C(NC(=O)C1CCCCC1)C(=O)Nc1ccncc1 (configuration not stated),4.4%,1.1%,-16.6%,3.6%,-3.3%,12.4%,-0.1%[46.1 µM],-4.5%
c1ccc(-c2noc(-c3ccc4c(c3)OCO4)n2)nc1,?,0.7%,.,-13.9%,-7.6%,0.411µM*,?,?
Cc1ccc(C)c(NC(=O)Cn2nnc(C(=O)NCCc3ccccc3)c2N)c1,.,-0.3%,0.1%,.,-9.2%,-7.9%[46.1 µM],.,.
CCOc1ccccc1NC(=O)CSc1nnc(-c2cccnc2)o1,16.3%,.,-19.2%,0.2%,.,24.3%,21.3%[46.1 µM],.
CCC(=O)OC1(C)C(=O)C=C2C=C(c3ccc(C#N)cc3)OC=C2C1=O (configuration not stated),-3.1%,-2.3%,-20.0%,.,-7.0%,?,?,.
COc1ccc(CCNC(=O)Cc2cccs2)cc1,20.9%,-0.6%,10.1%,-0.3%,3.4%,?,24.5%,3.8%
NNc1nnc(-c2ccccc2)c(-c2ccccc2)n1,7.7%,-1.5%,-10.0%,2.1%,-14.7%,5.7%,4.5%,25.5%
COc1ccc(CC(=O)N(Cc2cc3cc(OC)ccc3[nH]c2=O)C(C)C)cc1,1.1%,-4.5%,?,1.6%,-6.1%,-19.3%,-1.1%[46.1 µM],-1.0%
COc1ccc(N(CC(=O)Nc2cccc(Cl)c2)S(=O)(=O)c2c(C)[nH]c(=O)[nH]c2=O)cc1,.,-0.1%,-17.8%,.,-12.7%,6.0%[46.1 µM],-3.5%[46.1 µM],.
Brc1cc(Br)c2nc3c(cc2c1)CCC3,-21.8%,.,4.1%,0.4%,.,.,.,-2.8%
CCOC(=O)NN=C1CN(S(=O)(=O)c2ccc(C)cc2)C1,-1.9%,.,0.7%,1.9%,.,.,?,3.3%
C#CCOCCOCCOCCNc1nc(N2CCN(C(=O)[C@H](CCC(=O)O)n3cc(C(N)CO)nn3)CC2)nc(N2CCN(C(=O)[C@H](Cc3ccc(O)cc3)n3cc(C(N)[C@H](C)CC)nn3)CC2)n1 (some centres not stated),-7.2%,.,-6.0%,-0.7%,.,.,.,2.0%
COC(=O)c1ccc2c(c1)N(CC(=O)Nc1ccc(C)c(C)c1)C(=O)c1ccccc1S2,.,-1.5%,-6.0%,.,3.0%,4.7%[46.1 µM],.,.
Cc1ccc(-n2cc(CN(C)Cc3ncc[nH]3)c(-c3cccc(C)c3)n2)cc1,-0.7%,.,-17.3%,0.0%,.,?,?,-0.9%
COc1cc(-c2nc(-c3ccc(-c4ccccc4)nc3OC)no2)cc(OC)c1OC,.,-0.9%,.,2.5%,4.3%,.,.,-3.6%
CCCCOc1ccc(C(=O)Nc2ccc(OCC(=O)N3CCOCC3)cc2)cc1,7.0%,.,-29.1%,-2.0%,.,-18.6%,?,9.0%
COc1cc(Cl)c(C)cc1NC(=O)CCn1cnc2onc(-c3ccc(F)cc3)c2c1=O,.,-0.7%,0.0%,.,-10.3%,-8.8%[46.1 µM],.,.
N=c1n(Cc2ccc(Cl)cc2)c2ccccc2n1CC(O)COc1ccccc1 (configuration not stated),11.1%,.,?,-4.5%,.,?,?,-1.8%
COc1ccc(NC(=O)CSc2ccc(C)cc2)cc1,1.0%,-4.6%,52.4%[activator],13.2%,?,22.5%,-8.4%[46.1 µM],13.6%
CCc1ccccc1NC(=O)c1cc(C2CC2)on1,-20.2%,5.4%,20.1%,-8.9%,-4.6%,.,.,-61.9%
N#CC1=C(N)Oc2cc(O)ccc2C1c1cccnc1 (configuration not stated),1.9%,.,11.0%,-0.3%,.,-12.1%,3.1%,.
CC(=O)c1c(N2CCN(CCO)CC2)nc(=S)n(-c2ccccc2)c1C,-9.8%,.,1.8%,0.2%,.,15.1%,26.0%[46.1 µM],.
CCCCC(=O)Nc1cc(C(=O)NCCc2ccccc2)ccc1Cl,15.7%,0.3%,.,-2.1%,-0.5%,0.2%,?,-8.9%
Cc1cc(C(=O)NCc2ccccc2Cl)c2ccccc2n1,1.4%,.,-3.9%,-16.9%,.,-25.5%,-16.9%[46.1 µM],18.6%
Cc1nc(CS(=O)(=O)c2ccc(Cl)cc2)cc(Sc2ccc(Cl)cc2)n1,1.1%,-8.5%,?,-9.8%,?,-8.9%,-10.5%,2.9%
CCn1c(SCC(=O)N2CCCC(C)C2)nc2c1c(=O)n(C)c(=O)n2C (configuration not stated),-3.4%,.,-19.9%,2.7%,.,4.4%,-21.9%,-0.4%
C(/CCc1ccccc1)=N\n1cnnc1,4.0%,-0.6%,8.8%,6.4%,8.5%,8.1%,21.5%,2.8%
Fc1ccc(Nc2nc(N3CCOCC3)nc(N3CCOCC3)n2)cc1Cl,3.9%,.,-22.5%,1.7%,.,.,.,9.3%
Cc1nn(-c2ccccc2)c(C)c1/C=N/NC(=O)c1cc(-c2ccc(Br)s2)[nH]n1,11.7%,-3.1%,-16.3%,3.8%,-2.0%,6.51µM*,7.3µM*,10.8%
COc1ccc(S(=O)(=O)N2CCN(c3ccccc3OC)CC2)cc1,10.0%,-3.6%,-6.7%&0.0%,-1.3%,-2.7%,-28.7%[46.1 µM],.,-8.5%
O=C(CN(Cc1ccccc1)C(=O)c1cccc([N+](=O)[O-])c1)Nc1c(Cl)cc(Cl)cc1Cl,39.3%,-0.7%,3.7%,12.9%,26.6%,2.3%,2.3%,0.4%
CCOC(=O)Oc1ccc2oc(=O)cc(C)c2c1,-19.2%,3.7%,15.3%,-0.4%,-1.7%,2.4%,1.5%,-3.9%
O=C(C[n+]1ccccc1)N/N=C/c1cc(Br)cc(Br)c1O,?,.,1.2%,-3.1%,.,-27.6%,6.3%,-101.9%
O=S(=O)(c1ccc(Cl)cc1)N1CCC2(CC1)CO2,-3.5%,.,3.7%,-0.1%,.,-22.4%,.,.
COc1ccc(CCN2CC3=C(C2=O)C(c2ccccc2)NC(=O)N3C)cc1OC (configuration not stated),11.9%,-4.4%,5.2%,-7.2%,3.7%,-3.7%,-5.1%,0.8%
Cc1cc(C)nc(-n2nc(C)c3c(C(F)(F)F)cc(=O)[nH]c32)n1,-17.7%,-0.4%,-4.0%,1.3%,1.8%,0.3%,13.8%,0.1%
Cc1ccc(CN2CCN(C)CC2)c(C)c1,34.1%[3.69 µM],3.8%,-17.0%,5.1%,-6.6%,-0.7%,-10.2%,6.4%
O=C(O)c1ccccc1P(=O)(c1ccccc1)c1ccccc1,-2.1%,.,-5.3%,1.1%,.,?,-20.3%,.
CC1CCCN(C(=O)c2cc(F)c(F)cc2Cl)C1 (configuration not stated),-9.1%,8.9%,-8.7%,3.3%,9.3%,2.3%,-1.4%,7.8%
O=C(c1ccc(F)cc1)n1nc(-c2cccnc2)nc1NCc1ccc(F)cc1,.,-7.1%,-5.1%,.,-16.5%,-0.3%[46.1 µM],?,.
NC(=O)c1ccc(NCc2ccco2)c([N+](=O)[O-])c1,-2.1%,1.8%,-10.6%,3.7%,1.5%,4.3%,?,8.3%
Cc1ccc(OC(=O)c2ccc(C)c(C)c2)cn1,-23.9%,0.0%,75.4%[activator],-19.1%,4.6%,12.9%,13.3%,-17.6%
CCOC(=O)C1CCN(Cc2ccc(N(C)C)cc2)CC1,-13.8%,0.3%,-11.3%,-3.9%,-2.4%,9.1%,?,1.1%
O=c1oc2c(CN3CCOCC3)c(O)ccc2c2ccccc12,-0.6%,-5.2%,9.5%,3.2%,-17.2%,13.1%,?,-8.0%
O=C(NCCCn1ccnc1)/C(=C/c1ccc(F)cc1)NC(=O)c1ccccc1,-1.2%,.,5.3%,0.6%,.,?,-12.7%[46.1 µM],1.1%
C/C(CCc1ccc2c(c1)OCO2)=N\N=C1\NC(=O)CC(C(=O)Nc2ccccc2F)S1 (configuration not stated),-3.8%,.,-18.7%,1.0%,.,-29.5%,0.0%[46.1 µM],.

Screening results deposited in PubChem by National Center for Advancing Translational Sciences (NCATS).
